Ecoli rRNA inh: inhibitors of bacterial rRNA selective over humanized ribosomes. AID 720706. GFP signal change (wild-type ribosome), % (no concentration beside the values). 1.6% of 350,000 active. E. coli WT GFP vs humanized-ribosome RFP mutants, fluorescence, 24 h; active compounds read low; DMSO median 0, no signal -100;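 active = significant combined selectivity score with lowered wild-type GFP, culture density cut under 30%, mutant RFP and density less affected; inactive = any of these conditions unmet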; note: one replicate is shown; some compounds called inactive have numbers as strong as hits
ALR inh: human ALR oxidase inhibition via reduced H2O2; P55789; purified ALR, DTT oxidation, H2O2 HRP-luminol luminescence; inhibition, % (test concentration not listed); 3.8% of 290,000 active; AID 485317;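 active = mean and each replicate at 75% or more; inconclusive = only one of the two met; inactive = neither met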;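 note: stock transfer was 7.5 nL into about 7.5 µL; 0% = neutral wells and 100% = wells with inactivated enzyme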
Target sequence (P55789 whole entry, looked up): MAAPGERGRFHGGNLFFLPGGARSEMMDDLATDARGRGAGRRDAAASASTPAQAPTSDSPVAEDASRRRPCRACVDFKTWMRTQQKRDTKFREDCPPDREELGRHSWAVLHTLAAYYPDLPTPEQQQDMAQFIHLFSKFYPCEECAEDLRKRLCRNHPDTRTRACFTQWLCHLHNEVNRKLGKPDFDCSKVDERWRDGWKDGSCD
FGF22 binding: FGF22 (human) thermal shift binding. calls only at 9.99 µM. Q9HCT0. AID 651658. recombinant FGF22 thermal shift, SYPRO orange fluorescence; percent of sucrose octasulfate shift, DMSO zero. 1.5% of 340,000 active;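 active = melting point raised past a set limit in the mean and every replicate; inconclusive = no clear call; three in four hits are not shown here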
Target sequence (Q9HCT0 whole entry, looked up): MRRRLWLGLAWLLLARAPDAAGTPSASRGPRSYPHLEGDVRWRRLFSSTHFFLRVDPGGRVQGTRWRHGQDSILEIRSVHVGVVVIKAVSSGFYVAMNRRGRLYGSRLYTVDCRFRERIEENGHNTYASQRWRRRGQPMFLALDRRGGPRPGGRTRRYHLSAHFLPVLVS
AF4-AF9 inh: blocks AF4 peptide binding to human AF9; 0.47% of 350,000 active; inhibition, % at 10 µM; AlphaScreen, biotin-AF4 peptide binding to FLAG-AF9; AID 651704; P42568;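 active = every replicate reaching a set inhibition limit, whatever the replicate mean, cut at about 25% in these data; inconclusive = mean inhibition reaches that limit but some replicates miss it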;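 note: 0% = plate neutral control median and 100% = total signal loss; the record names both 10 and 1 µM as test concentration; the first replicate is given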
Target sequence (P42568 whole entry, looked up): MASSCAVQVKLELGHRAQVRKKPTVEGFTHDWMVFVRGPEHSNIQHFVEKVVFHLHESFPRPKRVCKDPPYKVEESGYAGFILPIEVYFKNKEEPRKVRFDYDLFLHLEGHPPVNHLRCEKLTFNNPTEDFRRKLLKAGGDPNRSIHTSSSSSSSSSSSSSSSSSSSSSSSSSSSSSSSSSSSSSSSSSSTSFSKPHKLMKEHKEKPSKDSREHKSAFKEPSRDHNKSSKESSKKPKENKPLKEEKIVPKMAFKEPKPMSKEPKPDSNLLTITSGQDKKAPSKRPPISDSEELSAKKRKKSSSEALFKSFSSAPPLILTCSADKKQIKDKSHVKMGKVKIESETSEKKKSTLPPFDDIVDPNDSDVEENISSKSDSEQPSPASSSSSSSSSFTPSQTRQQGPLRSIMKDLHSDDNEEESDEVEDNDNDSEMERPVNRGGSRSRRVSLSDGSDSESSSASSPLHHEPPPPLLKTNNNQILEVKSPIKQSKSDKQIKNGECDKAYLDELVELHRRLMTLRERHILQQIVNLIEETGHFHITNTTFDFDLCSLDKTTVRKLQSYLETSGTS
Calb FLC: affects C. albicans growth with fluconazole. C. albicans CaCi-2 (fluconazole-resistant clinical isolate) + fluconazole, Alamar Blue growth, 48 h. growth inhibition, % (test concentration not listed). 0.57% of 300,000 active;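 active = most replicates above 75%; inconclusive = exactly half above 75%; inactive = most below 75%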;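 note: all wells also contain fluconazole at 8 µg/ml as a sub-toxic cotreatment; 0% = median of DMSO wells and 100% = median of geldanamycin control wells; wells of about 8 µL received 7.5 nL stock; the first replicate is given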
Beta apoptosis: beta cell apoptosis inhibition; 0.8% of 300,000 active; AID 435005; INS-1E cytokine-induced death, ATP luminescence, 48 h; percent of positive-control rescue, neutral wells zero; protection from apoptosis, % (concentration not given with the values);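 active = all replicates at 75% or more, or half of them and the mean; inconclusive = half reach 75% but not the mean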;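 note: 0% = cytokine-treated negative control wells and 100% = positive control rescue; higher means more ATP so stronger rescue from cytokine killing; wells of about 40 µL received 100 nL stock; the first replicate is given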
T cruzi repl: T. cruzi replication inhibition; AID 1885; T. cruzi beta-gal in NIH3T3, luminescence, 90 h; 1.4% of 300,000 active; inhibition, % (test concentration not listed);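 active = mean inhibition across valid replicates above about 55%, limit read from the data; inconclusive = mean below that limit but half or more replicates reach it; inactive = mean below it, under half of replicates reach it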;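 note: signal also drops with host cell toxicity which is not excluded here; 0% = plate median of DMSO wells and 100% = zero luminescence signal; higher percent means less beta-gal luminescence so fewer parasites; stock transfer was 50 nL into about 50 µL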
RanGTP-Impb inh: inhibitors of RanGTP-importin-beta interaction, primary screen, biochemical, FRET, CFP-Ran, YFP-importin-beta, homogeneous | cell-free CFP-Ran/YFP-importin-beta FRET ratio | inhibition, % (concentration not given with the values) | 1.1% of 300,000 active | AID 2216;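 active = most replicates above 15%; inconclusive = exactly half above 15%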;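 note: 0% = DMSO wells and 100% = Ran loaded with GDP instead of GTP; wells of about 40 µL received 100 nL stock; the first replicate is given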
Ecoli rRNA inh OD600: also measured in Ecoli rRNA inh; calls as there; OD600 change, %; measured here: OD600 growth;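 optical density of the mix in the first replicate; 0 = DMSO median and -100 = no signal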
Ecoli rRNA inh RFP: recorded beside Ecoli rRNA inh, whose call it bears; RFP signal change, %; measured here: RFP humanized mutant strains;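 first replicate; 0 = DMSO median and -100 = no signal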
The depositor's hits bear a star; i = inactive; ? = inconclusive; · = no result given; & = joins results of further samples. The list is partial; count on the stated rates, not on these rows.

Value order: Ecoli rRNA inh, Ecoli rRNA inh OD600, Ecoli rRNA inh RFP, ALR inh, FGF22 binding, AF4-AF9 inh, Calb FLC, Beta apoptosis, T cruzi repl, RanGTP-Impb inh
1) COc1ccc(N2C(=O)NC(=O)/C(=C/c3ccc([N+](=O)[O-])s3)C2=O)cc1
    1, -4, 12, 40, i, ·, -3, 4, 32, ?
2) O=C1CCCN1CC#CCN1CCCC1
    13, 17, 2.6, 6, i, -1.2, ·, -4, -12, 0.7
3) C=CCN=C(SCC(=O)c1ccc(Cl)cc1)c1c(O)n(C)c(=O)n(C)c1=O
    -1, 3, 7.5, ?, i, 5.0, 4, -24, -4, 1.2
4) O=C(CCN1CCOCC1)NCC(=O)Nc1ccc(Br)cc1C(=O)c1ccccc1
    ·, ·, ·, -4, ·, ·, -5, -7, -1, 0.1
5) COc1cc(/C=N/n2cnnc2)ccc1OC(=O)N(C)C
    -4, -4, 2.2, -2, i, -4.1, -15, ·, -2, 1.6
6) O=C(CCNC(=O)N1C[C@H]2C[C@@H](C1)c1cccc(=O)n1C2)Nc1ccc(F)cc1
    ·, ·, ·, -5, i, -5.5, 0, 2, 2, 1.0
7) Cc1ccc(Cl)cc1-n1c(O)c(C=NCCCN2CCOCC2)c(=O)[nH]c1=O
    ·, ·, ·, -2, ·, ·, -4, -1, -10, 10
8) COC(=O)C1=C(c2ccc(-c3ccccc3)c(F)c2)C[C@@H]2CC[C@H]1N2C(=O)NCCOc1ccc(OC)cc1
    9, 5, 4.7, -4, i, 4.1, ·, 23, ·, ·
9) O=C1CN=C(c2cc([N+](=O)[O-])ccc2Cl)c2cc([N+](=O)[O-])ccc2N1
    -14, 7, -3.9, -16, i, -0.6, -7, 0, -1, 5.2
10) CNC(=O)Oc1ccc(-c2cn3cc(Cl)ccc3n2)cc1
    ·, ·, ·, 2, ·, ·, -33, -3, 8, 2.0
11) Cc1ccc(-c2nc(CS(=O)CC(=O)N3CCC4(CC3)OCCO4)c(C)o2)cc1 (configuration not stated)
    ·, ·, ·, 99*, ·, ·, ?, -7, -10, 3.4
12) Cc1nn(Cc2ccccc2)c(C)c1C=C1C(=O)NC(=O)NC1=O
    ·, ·, ·, 95*, ·, ·, 0, -9, 5, 3.1
13) CSc1ccc(C(=O)C2CCCN(C)C2)cc1 (configuration not stated)
    15, 5, 1.1, -3, i, 0.8, -35, -20, -10, ?
14) Nc1ccc(S(=O)(=O)N2CC3CC(C2)c2cccc(=O)n2C3)cc1 (configuration not stated)
    9, 0, 5.3, -5, i, -0.7, -9, ·, -5, -0.4
15) Nc1ccc2c(c1)Cc1ccccc1-2
    ·, ·, ·, 99*, ·, ·, 1, -7, -16, -0.1
16) C[C@]12N[C@H](Cc3ccccc31)c1ccccc12
    13, 10, -0.4, -1, i, -2.8&1.1, -5, ·, -13, -0.7
17) Cc1ccccc1-n1c(O)c(/C=N/N2CCOCC2)c(=O)[nH]c1=S
    ·, ·, ·, 48, ·, ·, 3, ·, -2, 0.6
18) Cc1ccc(N2C(=O)NC(=O)/C(=C\c3ccsc3)C2=O)cc1C
    ·, ·, ·, -16, ·, ·, 18, -7, -13, 6.6
19) Cc1c(CCN)ccc2c1[nH]c1ccccc12
    13, 11, 1.3, -3, i, 2.9, -2, -2, -5, -0.9
20) O=c1[nH]c2ccccc2c(=O)n1-c1cccc(Cl)c1
    ·, ·, ·, 1, ·, ·, 2, -1, -40, 1.9

The list goes on:
Value order: Ecoli rRNA inh, Ecoli rRNA inh OD600, Ecoli rRNA inh RFP, ALR inh, FGF22 binding, AF4-AF9 inh, Calb FLC, Beta apoptosis, T cruzi repl, RanGTP-Impb inh
21) O=c1[nH]c(=O)n(Cc2ccc(F)cc2)c(O)c1C=NCC1CCCO1 (configuration not stated)
    ·, ·, ·, -1, ·, ·, 4, -2, -5, 6.0
22) COC(=O)C1=C(c2ccc(F)cc2OCc2ccccc2)C[C@@H]2CC[C@H]1N2C(=O)NCc1ccccc1OC
    -1, 1, 0.4, -3, i, 9.0, ·, 2, ·, ·
23) CCOc1ccc(N=Cc2c(O)n(-c3ccc(C)c(C)c3)c(=O)[nH]c2=O)cc1
    9, 6, 0.4, 13, i, -7.2, -5, 0, 7, -4.5
24) COCCNC(=O)Cn1cc(/C=C2\C(=O)NC(=O)N(c3ccccc3F)C2=O)c2ccccc21
    35, 12, 64, -1, i, -25, 0, -1, -9, 3.1
25) CCCCCn1c(=O)c(C(=O)NCc2ccccn2)c(O)c2ccccc21
    ·, ·, ·, -4, ·, ·, 8, -6, 41, 3.7
26) COc1ccc(NC(=O)N2CCC3(CC2)OCCO3)c(OC)c1
    18, 14, 0.1, -26, i, -0.5, 16, 0, -10, 0.2
27) CCN(CC)CCOC(=O)c1cc2cc(COC)ccc2o1
    ·, ·, ·, -2, ·, ·, -2, -4, 1, -1.9
28) CCCCNC(=O)c1c(N)n(CCCOC)c2nc3ccccc3nc12
    ·, ·, ·, ·, ·, ·, 10, -11, 20, 106*
29) CNCCc1ccccc1
    ·, ·, ·, ·, ·, ·, -5, -2, 4, ?
30) CCOC(=O)c1ccc(N2C(=O)CC(N3CCC(C#N)(c4ccccc4)CC3)C2=O)cc1 (configuration not stated)
    ·, ·, ·, ·, ·, ·, -4, 3, 3, -0.1
31) COc1ccc(NC(=O)C2C3CCC(O3)C2C(=O)O)c(OC)c1 (configuration not stated)
    17, 15, 3.2, 8, i, 14, -5, -2, 10, -1.0
32) C#CCN1CCN(c2ccc(F)cc2)CC1
    1, 2, 1.6, -2, i, -1.2, 1, -7, 7, 3.6
33) CN(C)P(=O)(C(Cl)=C(N1CCCCC1)N1CCCCC1)N(C)C
    8, 8, -2.0, 98*, i, 4.9, 1, -3, 15, 1.6
34) COc1cccc(CC(=O)N(C)C2CCCN(Cc3ccccc3F)C2)c1 (configuration not stated)
    -2, -1, -7.0, -2, i, -1.4, -7, -5, 7, 2.7
35) Cc1nn(Cc2ccccc2)c(C)c1C(=O)NCc1ccccc1F
    -7, -10, -5.1, 0, i, 0.5, 35, -3, -12, -0.8
36) O=C(O)c1ccc(N=Cc2c(O)[nH]c(=O)[nH]c2=O)cc1
    2, 10, 2.6, 5, i, -3.3, 6, -5, -22, 8.0
37) Cc1cc(C(=O)OCC(=O)Nc2ccc(F)cc2F)c(C)n1C1CC1
    -15, -18, 11, 2, i, 1.5, ·, 2, ·, ·
38) CSc1ncc(Cl)c(C(=O)O)n1
    ·, ·, ·, 0, ·, ·, -3, -10, -22, 2.3
39) CCOP(=O)(OCC)/C(C#N)=C/c1ccoc1
    7, 9, 10, -9, ·, -1.4, -5, 0, -4, ?
40) CN(C)c1ccc(-[n+]2c(-c3ccccc3)cc(-c3ccccc3)cc2-c2ccccc2)cc1
    -59, -83, -22, ·, i, 31*, 90*, ·, 61*, 6.8

The list continues:
Value order: Ecoli rRNA inh, Ecoli rRNA inh OD600, Ecoli rRNA inh RFP, ALR inh, FGF22 binding, AF4-AF9 inh, Calb FLC, Beta apoptosis, T cruzi repl, RanGTP-Impb inh
41) CCOP(=O)(OCC)C(NC(=O)NC)C(N)=O (configuration not stated)
    13, 4, -3.5, ·, i, 3.0, 3, -1, 2, -8.6
42) c1ccc2c(c1)CNc1ccccc1O2
    ·, ·, ·, -6, ·, ·, 1, -3, -10, -3.9
43) O=C(C(=O)N1CCC2(CC1)OCCO2)c1c[nH]c2ccccc12
    14, 8, 6.2, 0, i, 0.4, -10, 3, -12, 1.5
44) C[C@]12CCC(=O)C=C1CC[C@@H]1C2[C@H](O)C[C@]2(C)C(=O)CCC12 (some centres not stated)
    -26*, 3.0*, -0.6*, -4, i, -1.9, 1, 3, -7, -0.5
45) O=C(N/N=C/c1c(O)n(C2CC2)c(=S)[nH]c1=O)c1ccccc1O
    ·, ·, ·, 24, ·, ·, 3, -7, -1, 0.2
46) Cc1cc(/C=C2/C(=O)NC(=O)N(C)C2=O)c(C)n1-c1ccccc1
    19, 11, 2.0, 62, i, -0.2, -1, -5, -7, -3.0
47) COC(=O)C1=C(c2ccc(OCc3ccccc3)cc2)C[C@@H]2CC[C@H]1N2C(=O)NCc1ccc(OC)c(OC)c1
    -4, -15, 1.9, -2, i, 4.9, ·, 7, ·, ·
48) CCC12CN3CC(CC)(CN(C1)C3c1cccnc1)C2=O (configuration not stated)
    ·, ·, ·, 1, ·, ·, -4, -3, -15, 4.6
49) C=C(C)CSc1nnc([C@@H](N)Cc2c[nH]c3ccccc23)o1
    ·, ·, ·, 1, ·, ·, 26, -6, 3, 0.7
50) Nc1ccccc1-[n+]1c(-c2ccccc2)cc(-c2ccccc2)cc1-c1ccccc1
    -58, -79, -30, -11, i, -0.7, 87*, 39, 61*, 41*
51) Cc1ccc(NC2=NCCCS2)c(C)c1C
    ·, ·, ·, ·, ·, ·, 0, -1, 15, -1.4
52) O=C(Cc1ccccc1)N1CCN(CC2CC3C=CC2C3)CC1 (configuration not stated)
    ·, ·, ·, 1, ·, ·, 14, -11, 17, 0.5
53) Clc1ccccc1C1NCc2ccccc2-n2cccc21 (configuration not stated)
    9, -2, 3.2, -21, i, 0.7, 12, -3, -3, -3.4
54) FC(F)(F)c1cccc(N2CCNCC2)c1
    ·, ·, ·, 0, ·, ·, -7, ·, 3, -0.3
55) CCOC(=O)C(C)Oc1cc(C)cc2oc(=O)c3c(c12)CCCC3 (configuration not stated)
    ·, ·, ·, ·, ·, -4.8, 1, ·, 27, 0.4
56) CN1C(=O)C(=Cc2ccccc2OS(=O)(=O)c2ccccc2)C(=O)N(C)C1=O
    7, 8, 3.9, 13, i, -0.2, -1, ·, -16, 9.0
57) Cc1ccc(C2=CCNCC2)cc1
    8, 6, 1.1, -8, ·, 1.7, -39, 31, 3, -0.1
58) Cc1c(OC(=O)N(C)C)ccc2c1O/C(=C\c1ccco1)C2=O
    13, 12, 0.1, -1, i, 13, 2, -4, -19, 30*

Four entries from above, sorted by formula weight, high to low.
Value order: Ecoli rRNA inh, Ecoli rRNA inh OD600, Ecoli rRNA inh RFP, ALR inh, FGF22 binding, AF4-AF9 inh, Calb FLC, Beta apoptosis, T cruzi repl, RanGTP-Impb inh
40) CN(C)c1ccc(-[n+]2c(-c3ccccc3)cc(-c3ccccc3)cc2-c2ccccc2)cc1
    -59, -83, -22, ·, i, 31*, 90*, ·, 61*, 6.8
28) CCCCNC(=O)c1c(N)n(CCCOC)c2nc3ccccc3nc12
    ·, ·, ·, ·, ·, ·, 10, -11, 20, 106*
18) Cc1ccc(N2C(=O)NC(=O)/C(=C\c3ccsc3)C2=O)cc1C
    ·, ·, ·, -16, ·, ·, 18, -7, -13, 6.6
31) COc1ccc(NC(=O)C2C3CCC(O3)C2C(=O)O)c(OC)c1 (configuration not stated)
    17, 15, 3.2, 8, i, 14, -5, -2, 10, -1.0
